Assay outcomes: PubChem, National Center for Advancing Translational Sciences (NCATS)
nsP2pro primary: inhibitors of chikungunya virus nsP2 protease. Q8JUX6. Potency, µM (series often up to 24.9 µM), for inactives: at the top dose activity change, negative = inhibition, hits mostly inhibitors. 31,000 compounds, 1.1% hits. FRET peptide cleavage, nsP2pro, fluorescence 1 h; active means well fitted inhibition curve with a large enough effect; inconclusive means small, poorly fitted or top-dose-only effect; inactive means no such curve, though single readings can be large or run the other way; note: nearly all actives have a fitted effect of over 60% in size; a reference inhibitor and vehicle were the controls
Target sequence (Q8JUX6 whole entry, looked up): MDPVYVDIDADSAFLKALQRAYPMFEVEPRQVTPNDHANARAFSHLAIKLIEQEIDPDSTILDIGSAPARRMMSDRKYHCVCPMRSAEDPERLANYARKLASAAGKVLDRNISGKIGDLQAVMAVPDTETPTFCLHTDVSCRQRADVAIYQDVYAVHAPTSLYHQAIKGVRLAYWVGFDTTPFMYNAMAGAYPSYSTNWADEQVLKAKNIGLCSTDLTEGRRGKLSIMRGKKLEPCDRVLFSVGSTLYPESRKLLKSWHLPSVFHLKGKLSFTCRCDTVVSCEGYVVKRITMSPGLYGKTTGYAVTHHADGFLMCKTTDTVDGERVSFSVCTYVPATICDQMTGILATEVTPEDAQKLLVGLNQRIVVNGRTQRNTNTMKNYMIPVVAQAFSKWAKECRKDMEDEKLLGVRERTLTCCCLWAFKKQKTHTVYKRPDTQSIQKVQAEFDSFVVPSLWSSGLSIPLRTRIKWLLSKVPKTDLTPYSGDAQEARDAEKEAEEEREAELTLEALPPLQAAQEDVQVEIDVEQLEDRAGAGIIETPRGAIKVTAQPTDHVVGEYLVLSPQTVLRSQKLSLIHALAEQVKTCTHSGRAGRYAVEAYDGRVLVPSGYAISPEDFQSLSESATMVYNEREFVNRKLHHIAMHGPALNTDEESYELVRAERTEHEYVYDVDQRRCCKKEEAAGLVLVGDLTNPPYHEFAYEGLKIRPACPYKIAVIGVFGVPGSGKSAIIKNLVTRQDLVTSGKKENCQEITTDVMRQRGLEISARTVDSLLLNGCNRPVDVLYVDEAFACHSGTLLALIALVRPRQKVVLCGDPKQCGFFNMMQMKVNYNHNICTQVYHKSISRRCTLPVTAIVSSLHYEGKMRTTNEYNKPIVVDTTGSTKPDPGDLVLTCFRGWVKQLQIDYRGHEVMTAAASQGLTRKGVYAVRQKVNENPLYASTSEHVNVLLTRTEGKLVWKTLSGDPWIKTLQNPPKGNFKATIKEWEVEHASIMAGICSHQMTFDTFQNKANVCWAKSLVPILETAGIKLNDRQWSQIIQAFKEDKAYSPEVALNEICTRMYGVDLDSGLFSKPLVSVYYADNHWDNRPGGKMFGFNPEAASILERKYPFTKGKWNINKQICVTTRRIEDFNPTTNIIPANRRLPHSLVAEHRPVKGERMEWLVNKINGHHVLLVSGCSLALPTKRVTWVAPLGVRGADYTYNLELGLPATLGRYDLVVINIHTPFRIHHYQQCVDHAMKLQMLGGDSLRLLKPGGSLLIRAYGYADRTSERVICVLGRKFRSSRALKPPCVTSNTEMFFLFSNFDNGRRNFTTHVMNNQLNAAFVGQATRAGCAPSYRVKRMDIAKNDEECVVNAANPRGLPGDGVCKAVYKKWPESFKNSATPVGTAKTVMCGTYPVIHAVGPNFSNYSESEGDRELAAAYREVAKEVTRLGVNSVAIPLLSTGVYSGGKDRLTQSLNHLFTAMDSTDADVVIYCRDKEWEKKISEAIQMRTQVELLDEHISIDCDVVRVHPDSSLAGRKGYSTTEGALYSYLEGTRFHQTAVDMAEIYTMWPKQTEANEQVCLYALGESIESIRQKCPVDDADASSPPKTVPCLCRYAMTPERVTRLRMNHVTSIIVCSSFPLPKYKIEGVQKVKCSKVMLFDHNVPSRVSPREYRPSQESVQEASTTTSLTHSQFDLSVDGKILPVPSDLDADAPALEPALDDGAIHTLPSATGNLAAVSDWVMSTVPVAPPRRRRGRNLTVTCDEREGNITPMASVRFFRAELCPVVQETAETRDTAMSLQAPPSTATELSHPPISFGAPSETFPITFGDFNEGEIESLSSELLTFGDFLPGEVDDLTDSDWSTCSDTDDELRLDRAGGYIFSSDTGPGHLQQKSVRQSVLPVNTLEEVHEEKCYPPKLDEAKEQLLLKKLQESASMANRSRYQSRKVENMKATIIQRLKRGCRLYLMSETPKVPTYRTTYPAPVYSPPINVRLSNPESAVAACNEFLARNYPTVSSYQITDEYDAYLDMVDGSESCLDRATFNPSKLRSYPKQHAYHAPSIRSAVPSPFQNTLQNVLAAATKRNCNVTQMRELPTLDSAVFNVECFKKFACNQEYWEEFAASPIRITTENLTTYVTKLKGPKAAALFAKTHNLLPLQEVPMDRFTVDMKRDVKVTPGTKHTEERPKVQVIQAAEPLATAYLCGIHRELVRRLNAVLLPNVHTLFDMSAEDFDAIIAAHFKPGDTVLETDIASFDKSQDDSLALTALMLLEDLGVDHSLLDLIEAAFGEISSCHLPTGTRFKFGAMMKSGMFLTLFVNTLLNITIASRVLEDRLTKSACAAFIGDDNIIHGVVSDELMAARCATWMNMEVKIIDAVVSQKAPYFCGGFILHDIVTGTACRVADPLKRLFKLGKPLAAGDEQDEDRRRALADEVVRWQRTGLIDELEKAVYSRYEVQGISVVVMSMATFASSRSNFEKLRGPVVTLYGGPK
Numbers without * were called inactive; i = inactive; ? = inconclusive; [ ] = dose if it differs, or a comment. % is set by controls: 0 for no effect and ±100 for the full control effect; potency is the fitted concentration of half-maximal effect. Some of the compounds tested. The share of hits here may be higher or lower than overall.

A first look, 2 compounds:
SMILES,nsP2pro primary
O=C(O[C@@H]1O[C@H](CO)[C@@H](O)[C@H](O)[C@H]1O)c1ccccc1,23%
Oc1ccccc1-c1nc(-c2cccs2)c(-c2cccs2)[nH]1,34%[activator]

Main list (from the top)
SMILES,nsP2pro primary
O=C(O[C@@H]1O[C@H](CO)[C@@H](O)[C@H](O)[C@H]1O)c1ccccc1,23%
Oc1ccccc1-c1nc(-c2cccs2)c(-c2cccs2)[nH]1,34%[activator]
Cc1cccc(O)c1,-6%
CCOC(=O)CCc1cc(F)c(S(=O)(=O)N2CCN(S(=O)(=O)c3ccc4c(c3)OCCO4)CC2)cc1F,-3%
Cn1c(CN2CCN3C(=O)NC[C@H]3C2)nc2ccccc21,i
CCOC(=O)c1nc(N2CCN(c3ccc(F)cc3)CC2)c2c(C)noc2n1,-24%
C[C@@H](CN1CCC(n2c(=O)[nH]c3cc(Br)ccc32)CC1)NC(=O)[C@@H]1C[C@H]1c1ccccc1,-3%
CCCn1c2ccccc2c2cnn(CC(=O)NCCc3ccc(OC)cc3OC)c(=O)c21,-19%
CNC(=O)c1noc(CN2CCCC(CCc3ccccc3F)C2)n1 (centres undefined),-5%
COC[C@H]1C[C@@H](NC2CCOCC2)[C@H](O)[C@@H]1O,2%[39.2 µM]
FC(F)(F)c1ccccc1-c1nc(NCc2cccc3ccccc23)c2ccccc2n1,-3%
O=C(COc1ccccc1F)N1CCN(Cc2cc(=O)n3nc(-c4ccccc4Cl)sc3n2)CC1,-16%
O=C(Nc1ccc2c(c1)CCC2)Nc1nnc(-c2ccncc2)s1,4%
CCOc1ccc(-n2cc(C(=O)Nc3ccccc3OCC)c3cc(OC)c(OC)cc3c2=O)cc1,-5%
COc1ccc(OC)c(CNC(=O)c2cc3c(Cl)nc4ccccc4c3s2)c1,-19%

Other entries:
SMILES,nsP2pro primary
COc1ccc(OC)c(C2C(C#N)=C(N)Oc3n[nH]c(-c4ccc5ccccc5c4)c32)c1 (centres undefined),20%
CC(C)CCN1C(=O)N(c2ccccc2)C(=O)C1CC(=O)Nc1ccc(Cl)cc1 (centres undefined),-6%
CN1CCN(Cc2cccc(OCC(O)CN3CCOCC3)c2)CC1(C)C (centres undefined),2%
O=C1N(CC2CCCCN2)CCN1c1ccccc1 (centres undefined),?
Cc1cccc(CNc2ccnc(-c3ccc(C(F)(F)F)cc3)n2)c1,5%
CCc1ccc(-c2nc(SCC(=O)NCC3CCCO3)c(-c3ccc(F)cc3)[nH]2)cc1 (centres undefined),?
Cc1nnc2n1CCC(NC(=O)c1cc(CN3CCOCC3)on1)CC2 (centres undefined),28%
CCc1nnc2c(NCc3ccccc3OC)nc3ccccc3n12,0%
CC(C)c1ccccc1-c1nc(NCc2ccc(-c3cccnc3)cc2)c2ccsc2n1,-18%
O=C(c1ccccc1)N1CCN(C(=O)c2cccc(-c3ccccn3)c2)CC1,5%
COc1ccc(C2Nc3ccccc3C(=O)N2Cc2ccc(Cl)cc2)cc1COc1ccc(NC(C)=O)cc1 (centres undefined),-9%
CCN(Cc1ccncc1)C(=O)C(CO)c1ccccc1 (centres undefined),-17%
Cc1ccc(CC(=O)NCc2nc(-c3cccc(C)c3)no2)cc1,?
CCCn1cnc2c(NCc3ccccc3)nc(N[C@H](CC)CO)nc21,11%
C[C@@H](CN1CC(=O)NC(=O)C1)N1CC(=O)NC(=O)C1,31%[activator]

(cont.)
SMILES,nsP2pro primary
CN1CC[C@H]2CN(C(=O)C3(Cn4ccnc4)CC3)C[C@@]2(C(=O)O)C1,i
COc1ccc(Cl)cc1N(C)C(=O)Cn1cnc2sc(C)c(S(=O)(=O)N3CCN(c4ncccn4)CC3)c2c1=O,-15%
COc1nc2ccc(Br)cc2cc1[C@@H](c1ccccc1)[C@@](O)(CCN(C)C)c1cccc2ccccc12,1.2µM*
CCOc1ccccc1-c1noc(CSc2nnc(-c3ccncc3)n2-c2ccc(F)cc2)n1,-23%
CCc1ccc(CN2CCN(c3ccc(C(N)=O)cn3)CC2)nc1,4%
COC[C@H]1NC(=O)CC[C@H]1C(=O)NCCCc1ccccc1,-2%
O=C(Nc1ccc(F)cc1)N1CCN(C(=O)c2nsc3ccccc23)CC1,-17%
CN1CCN(c2cccc(Nc3nc4c(-c5ccc(S(C)(=O)=O)cc5)cccn4n3)c2)CC1,32%[activator]
CCCCc1nn(CC(=O)N2CCCC2c2nc(C3CC3)no2)c(=O)n1CC (centres undefined),i
Cc1noc(C)c1-c1ccc2ncnc(NCc3cccc(F)c3)c2c1,?
O=C(O)[C@H]1C[C@@H](C(=O)NCc2ccncc2)CN(C(=O)CC2CCCC2)C1,1%
O=C(c1ccc(CCC2COc3ccccc3O2)cc1)N1CCCCC1 (centres undefined),2%
CC(=O)NC1(C)CCN(Cc2ccc(-c3ccc([S+](C)(=O)[O-])cc3)cc2)C1 (centres undefined),i
COc1cc2occc2c(O[C@@H]2O[C@H](CO)[C@@H](O)[C@H](O)[C@H]2O)c1CCC(=O)O,1%[10 µM]
O=C(Nc1ccc(Cl)cc1Cl)c1cnn2ncccc12,i

Reprinted at random: 2 records from the list
SMILES,nsP2pro primary
Cc1noc(C)c1-c1ccc2ncnc(NCc3cccc(F)c3)c2c1,?
Cc1cccc(O)c1,-6%

New compounds follow:
SMILES,nsP2pro primary
COc1ccc(CNC(=O)c2cc3sccc3n2Cc2ccc(F)cc2)cc1,-18%
CCCN1C[C@H](C)[C@@H](O)[C@](C)(O)[C@@H](CC)OC(=O)[C@H](C)[C@@H](O[C@H]2C[C@@](C)(OC)[C@@H](O)[C@H](C)O2)C(C)[C@@H](O[C@@H]2O[C@H](C)C[C@H](N(C)C)[C@H]2O)[C@](C)(O)C[C@H]1C (some centres undefined),4%
COc1ccc(-c2cc(-c3ccc(C)cc3)nc3c2COc2ccccc2-3)cc1,-24%
CC(=O)N(C)c1cccc(-c2ccnc3c(C(=O)c4cccs4)cnn23)c1,-9%
COc1cccc(-c2ccc3ncnc(NCc4cccc(F)c4)c3c2)c1,i
CCCCN(CCCC)CCNC(=O)c1cc(-c2cccnc2)nc2ccc(S(=O)(=O)N3CCC(C)CC3)cc12,5%
Cc1ccc(NC(=O)O[C@@H]2CC[C@]3(C)C(CC[C@@H](O)[C@H]3CC(=O)NCc3ccccc3)[C@]2(C)CO)cc1 (some centres undefined),-1%
CN(C)[C@@H]1CN(C(=O)c2cc3ccccc3[nH]2)CC[C@@H]1CO,-22%
CCCCN(C)C(=O)Cn1cnc2sc(C)c(S(=O)(=O)N3CCC(C)CC3)c2c1=O,-22%
O=C(C1CN(C2CCCC2)C(=O)N1)N1CCN(c2ncccn2)CC1 (centres undefined),4%
OCC(O)c1cc2n(n1)CCN(Cc1ccccc1Cn1cccn1)C2 (centres undefined),2%
CC(=O)O[C@@H]1C(=O)C(C)=C(CCC(C)CC(=O)O)[C@@]2(C)CCCC(C)(C)C12 (some centres undefined),6%
O=C(Nc1cccc(C(=O)O)c1)Nc1nnc(-c2ccncc2)s1,1%
CS(=O)(=O)c1ccc(Oc2cc(F)cc(C#N)c2)c2c1[C@H](O)C(F)(F)C2,-2%
COC(=O)c1cccc(NC2=NS(=O)(=O)c3ccccc32)c1,-4%

(more compounds)
SMILES,nsP2pro primary
O=S(O)CNc1ccc(S(=O)(=O)c2ccc(NCS(=O)O)cc2)cc1,-20%
N#Cc1ccc(-c2cccs2)nc1SCc1ccc(Br)cc1,-15%
CCS(=O)(=O)c1cccc(-c2cc(C(=O)NC3CCN(C)CC3)c(C)c3[nH]c4ncc(C)cc4c23)c1,84%[activator]
CN(C)c1ccc(CN(CC2CCCO2)C(=O)COc2ccc(Cl)cc2)cc1 (centres undefined),-25%
O=S(=O)(c1ccc(Cl)cc1)c1nc(-c2ccco2)oc1SCc1ccc(F)cc1,-16%
COCC1=C(C(=O)OC(C)OC(=O)OC(C)C)N2C(=O)[C@@H](NC(=O)/C(=N/OC)c3csc(N)n3)[C@H]2SC1 (some centres undefined),?
N#C/C(=C\c1ccc(O)c(O)c1)C(=O)NCCCc1ccccc1,?
Cc1ccc(Cn2c(C)c3cnn(CC(=O)NCCc4ccc(Cl)cc4)c(=O)c3c2C)cc1,-15%
Cc1ccccc1C(=O)N1CCC2(CC1)CC(c1cccc(C(F)(F)F)c1)=NO2,1%
c1nc(OCc2cnc[nH]2)c2cc(-c3ccc4c(c3)OCO4)ccc2n1,i
COc1ccc(OC)c(NC(=O)Cc2cccn2-c2ccc(Cl)cc2)c1,?
CC1=C2C(=O)O[C@@H](c3ccoc3)[C@]2(C)CCC1,?
C[S+](=O)([O-])NCCNC(=O)c1cccc(-c2ccc(C(F)(F)F)cc2)c1,i
Cc1ccc2oc(=O)c3cc(C(=O)N(Cc4ccccc4)C(C)C)sc3c2c1,27%
Cc1cccc(NC(=O)Cn2c(=O)n(Cc3ccc(C(=O)NCc4ccc5c(c4)OCO5)cc3)c(=O)c3ccccc32)c1,-22%

(further entries)
SMILES,nsP2pro primary
CC(=O)Nc1cccc(-n2cc3c(c2-c2ccccc2Cl)c(=O)n(C)c(=O)n3C)c1,-6%
Cc1noc(C)c1CC(=O)N1CC(=O)N(C2CCCCC2)CC(OCc2ccccc2)C1 (centres undefined),3%
OC[C@@H]1CN(Cc2ccco2)C[C@H]1c1ccncc1,-3%
CCOc1cc(C)c(C(C)C)cc1S(=O)(=O)n1ccnc1CC,-19%
CCn1cc(CN2CCN(C(=O)CCc3ccccc3)CC2)ccc1=O,?
CCc1nn2c(=O)cc(-c3ccncc3)nc2s1,4%
CC(=O)NC1(C)CCCN(Cc2cc(-c3c(C)noc3C)cs2)C1 (centres undefined),-6%[39.2 µM]
O=c1[nH]c(N2CCc3ccccc3C2)nc2c1CCN(Cc1cccs1)CC2,-12%
COc1ccc(NC(=O)/C(C#N)=C/c2cc(C)n(-c3ccc(F)cc3)c2C)cc1,-7%
Cc1ccc(-c2n[nH]c3c2C(c2ccc(C(C)(C)C)cc2)NC3=O)cc1 (centres undefined),-20%
Fc1ccc(-c2csc(=Nc3cccc(C(F)(F)F)c3)n2Cc2ccc3c(c2)OCO3)cc1,-27%
CC(CCc1ccccc1)NC(=O)CCn1ccn2nc3c(c2c1=O)CCCC3 (centres undefined),i
O=C([C@@H]1C[C@H](Oc2ccccc2)CN1C(=O)Nc1ccccc1F)N1CCOCC1,2%
COc1ccc(C(CC(=O)Nc2ncccc2C)N2Cc3ccccc3C2=O)cc1OC (centres undefined),-28%
Cc1ccc(OCCn2c(CCN(C)C(=O)C3CCCCC3)nc3ccccc32)cc1,-6%

As a short view, some entries already given.
SMILES,nsP2pro primary
CC(CCc1ccccc1)NC(=O)CCn1ccn2nc3c(c2c1=O)CCCC3 (centres undefined),i
O=C([C@@H]1C[C@H](Oc2ccccc2)CN1C(=O)Nc1ccccc1F)N1CCOCC1,2%
COc1ccc(C(CC(=O)Nc2ncccc2C)N2Cc3ccccc3C2=O)cc1OC (centres undefined),-28%
Cc1ccc(OCCn2c(CCN(C)C(=O)C3CCCCC3)nc3ccccc32)cc1,-6%

Further compounds follow.
SMILES,nsP2pro primary
O=CN1CCCC(n2cnc3cccnc32)C1 (centres undefined),-9%[39.2 µM]
COc1c(C)c(OCC=C(C)C)cc2c1CNC2=O,-13%
COc1ccc(Cl)cc1NC(=O)CN1C(=O)CN=C(c2ccccc2)c2cc(Cl)ccc21,-7%
CNC(=O)C1=C(C)NC(Nc2nc3ccccc3o2)=NC1c1nn(C)cc1Cl (centres undefined),i
CS(=O)(=O)OCCCCOS(C)(=O)=O,14%
O=C1CC2(CCN(C(=O)C3CCN(C(=O)c4ccccc4F)CC3)CC2)Oc2ccccc2N1,i
NC(=O)CSc1nc2c(oc3ccccc32)c(=O)n1Cc1ccccc1,-15%
Cc1cccc(-c2nc(SCC(=O)NCC3CCCO3)c3c(=O)n(C)c(=O)n(C)c3n2)c1 (centres undefined),-5%
Cc1nc2cc(S(=O)(=O)N3CCOCC3)ccc2n1CCNC(=O)C1CC1,4%
COc1ccc(-n2c(SCC(=O)Nc3ccc(Cl)c(C)c3)nc3n[nH]c(C)c3c2=N)cc1,1%
COc1cccc(C2CC(=O)Nc3cc4c(cc32)OCO4)c1OC(C)C (centres undefined),-11%
FC(F)(F)c1cc(-c2nc3ccccc3s2)cc(C(F)(F)F)c1,-5%
CCc1c(C(=O)N2CCc3c(c(C(=O)O)nn3CC3CC3)C2)csc1C,1%
O=C1CCc2cc(S(=O)(=O)Nc3ccc(Cl)cc3)ccc2N1,4%
COc1ccc(-n2nc(C)c([C@@H]3C=C[C@@H](NCc4ccc(N(C)C)cc4)C3)c2C)cc1,-10%[39.2 µM]

Later entries:
SMILES,nsP2pro primary
CC(=O)N1CCCC(c2nn(-c3cccc(Cl)c3)c(=O)[nH]2)C1 (centres undefined),-15%[39.2 µM]
Cc1oc2ncnc(N3CCCCC3)c2c1C(=O)NCC1CCN(Cc2cccc(F)c2)CC1,-8%
COCCn1c(SCC(=O)Nc2cc(Cl)ccc2OC)nc2c([nH]c3ccccc32)c1=O,-4%
O=C(c1ccccc1)N1CC2(CCCN2Cc2cccnc2)Cc2ccccc21 (centres undefined),-23%
Cc1cc(NC(=O)c2csc(NC(=O)Cc3ccc(Cl)c(Cl)c3)n2)no1,4%
CC(=O)c1ccc(N2CCN(S(=O)(=O)c3cc4c(cc3Cl)NC(=O)C4)CC2)cc1,i
O=C(c1c(OCC2CC2)cc(=O)n2c1CCOCC2)N1CCc2ccccc2C1,i
